# NPYLR7 agonist: mosquito NPYLR7 agonism | HEK293T NPYLR7/Galpha15, GCaMP6s calcium fluorescence | activation, % at 10 µM | 270,000 compounds, 0.15% hits | AID 1259423; in the data active = activation above about 40%;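 also: 0% = vehicle and 100% = reference agonist at the receptor; some compounds past the cut are filed as inactive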
# NPYLR7 agonist max-min: recorded beside NPYLR7 agonist, whose call it bears; activation, %; measured here: Max-Min RFU normalised activation; some inactives read as strong as hits;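 span of the calcium signal over five minutes; 0% = vehicle and 100% = native peptide agonist; compound fluorescence can raise it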
# Starred values were filed as active, the others as inactive; & = joins results of further samples. Not all compounds are listed (hit frequency here may not be typical).
SMILES,NPYLR7 agonist,NPYLR7 agonist max-min
CC(=O)NC1=NN(C(C)=O)C2(S1)C(=O)N(C(C)=O)c1ccc(F)cc12 (stereo not drawn),0,-3
COc1cccc(-n2nnc3c(N4CCN(C(=O)CC5CCCCC5)CC4)ncnc32)c1,-11,-19
N[C@H]1CN[C@H](C(=O)NCc2ccc3sccc3c2)C1,18,5
COc1ccc(Cl)cc1NC(=O)NCCCn1ncccc1=O,-6,-10
CCCOC(=O)C1=C(C)NC2=C(C(=O)CC(c3ccc(OC)cc3)C2)C1c1ccccc1Cl (stereo not drawn),0,0
CCOC(=O)NCNC(=O)OCC,1,-1
C=CCCC(O)CN(CCC(C)C)Cc1cccc(OC)c1OC (stereo not drawn),-9,-4
Cc1ccccc1/C=C/C1=NCCN1,3,-36
O=C1CC2(CCN(C(=O)c3cn[nH]n3)C2)Oc2ccccc21 (stereo not drawn),4,2
O=C(Nc1cccc(I)c1)C(=O)c1c(O)[nH]c2ccccc12,-4,-5
CCc1cccc2c(C(CC(=O)NCCOC)c3ccc(OC)cc3OC)c[nH]c12 (stereo not drawn),14,26
NC(CCCc1ccccc1)c1ccccc1 (stereo not drawn),1,-1
Cc1cccc(CNC(=O)N2CCN(C(c3ccccc3)c3ccc(Cl)cc3)CC2)c1 (stereo not drawn),19,22
COc1ccc(NC(=O)N2CCN(c3ccc(Nc4ccncc4)nn3)CC2)cc1OC,8,0
Cc1c(C(=O)N2CCC(C(N)=O)CC2)sc2cccc(F)c12,0,0
CC(C)COCC(O)CN(Cc1ccc2c(c1)OCO2)Cc1cccs1 (stereo not drawn),22,23
CN(Cc1ccc2ncccc2c1)CC1CCC(N)CC1 (stereo not drawn),17,6
COc1ccccc1Cn1c(C(=O)NCCc2ccccn2)cc2ccsc21,1,11
CN(C)c1ccc(C(=O)N2CCC(n3c(=O)oc4ccc(C(C)(C)C)cc43)CC2)cc1,2,-2
Cc1nc(=O)c(-c2ccccc2)c(C)n1CCO,14,4
O=C(CCc1nc2ccccc2o1)N1CC=C(c2ccccc2)CC1,1,1
Cc1cccc(C(=O)N(C)CCn2cc(C(=O)N3CCSCC3)nn2)n1,8,2
O=C(NCCc1c[nH]c2ccccc12)c1ccc(OC2CCN(C(=O)C3CC3)CC2)cc1,3,0
O=C(NCc1cccs1)c1cncn1-c1cccc(-c2cccc3c2sc2ccccc23)c1,4,1
COCCNC(=O)CNC(=O)C1CCN(S(=O)(=O)c2ccc(Cl)cc2)CC1,11,10
Cc1cn2c(=O)c3ccccc3nc2n2c(=O)c3ccccc3nc12,2,-1
CN(C(=O)Cn1cnc2ccc(Br)cc2c1=O)c1nccs1,21,16
CN(Cc1cccc2cnccc12)C(=O)COc1ccc(F)cc1,-1,-1
Cn1c(-c2c(N)n(Cc3ccco3)c3nc(C#N)c(C#N)nc23)nc2ccccc21,3,2
CCN1CCN(C(=O)c2cn[nH]c2-c2ccccc2)CC1,1,0
CCOC(=O)C1(CCOc2ccccc2)CCN(Cc2cccc(F)c2)CC1,-1,14
CC(C)=C1C2C=CC1C1C(=O)N(c3ccccc3Cl)C(=O)C21 (stereo not drawn),3,3
CC(C)CN(CC(C)C)C(=O)CSc1ncn[nH]1,3,2
COc1ccc(-c2nc3ccc(C)cn3c2NC(=O)C2CC2)cc1,-1,4
NC1CCSc2ccc(Cl)cc21 (stereo not drawn),6,12
CC(C1CC1)N(Cc1ccccc1)Cc1ccc(S(=O)(=O)N(C)C)o1 (stereo not drawn),1,-2
CCOc1cc(C=NNC(=O)Cn2cnc3ccccc32)ccc1O,-6,-11
Cn1ncc(Cl)c1-c1nc(-c2nonc2N)no1,0,-4
CC(C)NC(=O)C(C#N)C(=O)CC(C)c1ccc(C(F)(F)F)cc1 (stereo not drawn),9,6
COc1ccc2c(c1)sc(=NC(=O)c1coc3ccccc3c1=O)n2C,4,3

# Reprinted from the results shown for reference:
SMILES,NPYLR7 agonist,NPYLR7 agonist max-min
O=C(NCCc1c[nH]c2ccccc12)c1ccc(OC2CCN(C(=O)C3CC3)CC2)cc1,3,0
O=C(NCc1cccs1)c1cncn1-c1cccc(-c2cccc3c2sc2ccccc23)c1,4,1
COCCNC(=O)CNC(=O)C1CCN(S(=O)(=O)c2ccc(Cl)cc2)CC1,11,10
Cc1cn2c(=O)c3ccccc3nc2n2c(=O)c3ccccc3nc12,2,-1
CN(C(=O)Cn1cnc2ccc(Br)cc2c1=O)c1nccs1,21,16
CN(Cc1cccc2cnccc12)C(=O)COc1ccc(F)cc1,-1,-1
Cn1c(-c2c(N)n(Cc3ccco3)c3nc(C#N)c(C#N)nc23)nc2ccccc21,3,2
CCN1CCN(C(=O)c2cn[nH]c2-c2ccccc2)CC1,1,0
CCOC(=O)C1(CCOc2ccccc2)CCN(Cc2cccc(F)c2)CC1,-1,14
CC(C)=C1C2C=CC1C1C(=O)N(c3ccccc3Cl)C(=O)C21 (stereo not drawn),3,3
CC(C)CN(CC(C)C)C(=O)CSc1ncn[nH]1,3,2
COc1ccc(-c2nc3ccc(C)cn3c2NC(=O)C2CC2)cc1,-1,4
NC1CCSc2ccc(Cl)cc21 (stereo not drawn),6,12
CC(C1CC1)N(Cc1ccccc1)Cc1ccc(S(=O)(=O)N(C)C)o1 (stereo not drawn),1,-2
CCOc1cc(C=NNC(=O)Cn2cnc3ccccc32)ccc1O,-6,-11
Cn1ncc(Cl)c1-c1nc(-c2nonc2N)no1,0,-4
CC(C)NC(=O)C(C#N)C(=O)CC(C)c1ccc(C(F)(F)F)cc1 (stereo not drawn),9,6
COc1ccc2c(c1)sc(=NC(=O)c1coc3ccccc3c1=O)n2C,4,3

# Additional results:
SMILES,NPYLR7 agonist,NPYLR7 agonist max-min
COc1cc(-c2nnc(CSc3ncccn3)o2)cc(OC)c1OC,-3,4
COc1ccc(S(=O)(=O)N2CCOCC2)cc1N1CCN(C(=O)c2ccc(F)cc2F)CC1,28,27
CCCN(CC1CCCO1)C(=O)CSc1nnc(N)s1 (stereo not drawn),-1,-5
CCN(CC(=O)N1CCc2sccc2C1c1ccccc1C)C(=O)COc1ccc(Cl)cc1 (stereo not drawn),-4,5
O=C(c1ccc(C(F)(F)F)cc1)N1[C@@H](c2ccco2)[C@@H](CO)C[C@]12CCCCNC2=O,1,9
CCCNS(=O)(=O)c1cc2c3c(c1)C(C)C(=O)N3CCC2 (stereo not drawn),10,5
CC(C)CC(=O)Nc1nc2c(s1)C(=O)CC(C)(C)C2,5,3
CNC(=O)[C@@]1(OCc2cccc(F)c2)CC(OCc2ccc(C(F)(F)F)cc2)[C@@H]2OC(C)(C)O[C@@H]2C1 (stereo partly drawn),2,12
COC(=O)CCCCCCC(=O)N1CCC(c2c[nH]c3ccc(F)cc23)CC1,30,20
Cc1cccc(CN2CCN(c3ccc(Br)cc3)C(=O)C2C)c1 (stereo not drawn),-1,13
CCOC(=O)c1nn(-c2ccccc2)c(=O)cc1NCc1ccc(OC)cc1,7,1
CCN(CC)C1CCN(c2nc3nonc3nc2N2CCOCC2)C1 (stereo not drawn),22,14
CC1(C)[C@H]2CC=C(CN3CCC(Oc4ccccc4C(=O)N4CCCC4)CC3)[C@@H]1C2,-1,-2
COc1cccc(OCC(=O)Nc2nnc(Cc3ccc(C)cc3C)o2)c1,-11,-11
COCCn1ccc2c(cnc3nc(-c4ccncc4)nn32)c1=O,5,10
COc1ccccc1-c1nc(C(N)=O)c2[nH]c(=O)n(-c3ccc4c(c3)OCO4)c2n1,-9,-12
CNc1nc(-c2cc(C)n(C3CC3)c2C)cs1,4,3
CCc1ccc(C(=O)N2CCC3(CC2)NCC(=O)N3CC(=O)OC)cc1,-1,18
CCOC(=O)c1nn(-c2ccccc2C)c(=O)cc1OS(=O)(=O)c1ccc(C)c(C)c1,-1,4
COc1ccc(C(=O)N2CC(C)(C)SC23C(=O)N(Cc2ccc(F)cc2)c2ccccc23)cc1 (stereo not drawn),-2,0
CC(=O)Oc1c(-c2ccc(NC(=O)c3ccc(C(F)(F)F)cc3)cc2)c(-c2ccccc2F)nn1-c1ccc(C)cc1C,17,13
O=C(NC1CCN(c2ccccc2C(=O)NCCc2ccccc2)CC1)c1ccc([N+](=O)[O-])cc1,-1,5
O=C(c1cc2n(n1)CCN(Cc1cnc(-c3ccco3)nc1)C2)N1CCCC1,-4,-7
Nc1ncc(N=Nc2cccc(C(F)(F)F)c2)s1,4,3
COc1cccnc1NC(=O)c1ccc(Br)s1,2,15
O=C(NCC1CCCO1)C1CCN(C2CCN(C/C=C/c3ccco3)CC2)CC1 (stereo not drawn),6,1
CCN1CCCC1CNC(=O)c1ccc(-c2cc(-c3cccc4ccccc34)[nH]n2)cc1 (stereo not drawn),3,14
Cc1[nH]n(-c2nc(-c3ccccc3)cs2)c(=O)c1N=Nc1ccc(C(N)=O)cc1,-4,-9
Cc1ccc(C=Cc2nc(=S)n(CN3CCN(CCOc4ccccc4Cl)CC3)[nH]2)o1,-1,-2
O=C(c1ccc(Cl)c(Cl)c1)N1CCSC12CCNCC2,11,18
CC(=O)N1CCC(N2CCC3(CCCN(C(=O)OCC(C)(C)C)C3)C2)CC1 (stereo not drawn),3,2
COC(=O)Cc1ccc(OCC2(CO)COC2)cc1,0,-4
COc1cc(-c2ccc(-c3nn[nH]n3)cc2)cc(OC)c1OC,1,1
COc1cc(C)c(-c2cc(C(=O)O)c(C)o2)cc1C(C)C,3,8
COCCCN(CC(=O)N(CCc1ccc(OC)c(OC)c1)Cc1sccc1C)S(=O)(=O)c1ccc(OC)cc1,1,3
O=C(c1coc(CN(CCc2c[nH]c3ccccc23)Cc2ccc(Cl)c(Cl)c2)n1)N1CCOCC1,10,14
COc1ccc(CNC(=O)c2nnn(CC(=O)Nc3cccc(C)c3C)c2N)cc1,8,10
c1csc(CNCc2cn[nH]c2-c2cccs2)c1,-6,-4
CC(C)N(CC(=O)N(Cc1cccn1Cc1ccc(Br)cc1)C1CCCCC1)C(=O)c1ccco1,2,10
O=C(Nc1nnc(SCc2ccc(Br)cc2F)s1)C1CCCC1,-1,12

# A few values from the results shown:
# CC(C)N(CC(=O)N(Cc1cccn1Cc1ccc(Br)cc1)C1CCCCC1)C(=O)c1ccco1 in NPYLR7 agonist shows 2
# c1csc(CNCc2cn[nH]c2-c2cccs2)c1 in NPYLR7 agonist max-min shows -4

# Next part:
SMILES,NPYLR7 agonist,NPYLR7 agonist max-min
O=C1C=C(c2cccc([N+](=O)[O-])c2)C(=O)N1c1ccc(Cl)cc1,-11,-10
COc1ccc(OC)c(-c2cc(Cl)c3c(c2)CC(CNC(=O)C(C)n2nc(C)cc2C)O3)c1 (stereo not drawn),19,5
CCCN(CC(=O)Nc1cc(C(C)(C)C)nn1-c1cccc(C)c1)C(=O)Nc1cc(C(F)(F)F)cc(C(F)(F)F)c1,-9,-10
COc1ccc(-n2ncc3c2CCN(C(=O)c2ccc(-n4cccc4)nc2)C3)cc1,0,18
O=C(CCN1C(=O)/C(=C\c2ccccc2)SC1=S)NNC(=O)c1ccncc1,-1,5
COC(=O)c1ccc(N2CC(C(=O)OCc3ccc(Cl)c(Cl)c3)CC2=O)cc1 (stereo not drawn),-7,-8
CC(=O)N1N=C(c2ccccc2)CC1c1ccccc1[N+](=O)[O-] (stereo not drawn),-2&-18,-6&-17
O=S(=O)(NC1CCOc2ccccc21)C1=Cc2ccccc2CC1 (stereo not drawn),4,2
Cc1cc(C)n2nc(C(=O)N(C)Cc3ccc(C)o3)cc2n1,3,1
Cc1cc(C)n(CCCN(C)C(=O)C2CC3(CCNCC3)CN2)n1 (stereo not drawn),16,4
O=C1CN(CCC2=CCCCC2)C2CS(=O)(=O)CC2N1c1ccccc1 (stereo not drawn),3,3
Clc1ccc2nc(CCc3ccccc3)c(NC3CCCCC3)n2c1,-1,4
CN(Cc1cc(=O)n2cc(Br)ccc2n1)C1CCCc2ccccc21 (stereo not drawn),3,2
c1ccc(CCc2nc(CCOc3ccccc3)n[nH]2)cc1,-4,-7
CCOC(=O)CNNC(=O)COc1ccc(Cl)cc1Cl,-18,-20
C=CCNc1ccccc1C(=O)N1CCC(O)(CN2CCCC2)CC1,3,2
CCOC(=O)C1CCCN(C2CCCN(c3nc(C)c4ccc(S(C)(=O)=O)cc4n3)CC2)C1 (stereo not drawn),-2,-8
CCN(CC)S(=O)(=O)c1ccc(C(=O)Nn2cnc3c(cnn3C(C)(C)C)c2=O)cc1,2,-1
CO/N=C(/C(=O)NN(C)c1ccccc1)c1csc(NC=O)n1,-6,-15
Cc1ccc(-n2c(C)nnc2SCc2ccc(C(=O)Nc3cccc(C)c3)cc2)cc1,27,32
COc1ccc(CNC(=O)CCC2CCCN(C(=O)CCSC)C2)c(OC)c1 (stereo not drawn),3,-3
CCOC(=O)c1[nH]ncc1[C@@H]1C[C@H](NC(C)=O)C[C@H](CC(C)C)O1,2,6
Cc1occc1C(=O)N1CCCC(C(=O)c2ccc(Oc3ccccc3)cc2)C1 (stereo not drawn),1,-2
CCc1ccc(S(=O)(=O)N2CCN(c3cc(S(=O)(=O)N4CCCC(C)C4)ccc3OC)CC2)cc1 (stereo not drawn),21,15
CN1C[C@@H](O)[C@]2(CCN(C(=O)C3CCC3)C2)S1(=O)=O,5,6
O=C(NC12CC3CC(CC(C3)C1)C2)c1cccs1,0,1
C=CCc1cccc2cc(C(=O)N3CC(C)OC(C)C3)c(=O)oc12 (stereo not drawn),11,11
CCOC(=O)c1ccc2c(c1)nc(SCc1ccc(-n3cccn3)cc1)n2Cc1ccccc1,7,7
O=C(c1ccccc1Br)N1CCN(S(=O)(=O)c2ccc(F)cc2F)CC1,2,5
Fc1ccccc1-c1cc(CCl)no1,-3,-4
CO/C=C(\Oc1ccccc1C)C(=O)Nc1cccc(C)c1,11,13
Cc1cc(N2CCC(N(C)CCCS(C)(=O)=O)CC2)nc(C)n1,12,9
CS(=O)(=O)c1ccc(CN2CCN(c3ccnc4ccccc34)CC2)cc1,1,-1
Cc1ccc(CNC(=O)CSc2nccn3nc(-c4ccc(Cl)cc4)cc23)cc1,-4,-11
Cc1cc(C(=O)NCCc2ccccc2)n2nc(C(C)(C)C)cc2n1,18,12
CN(CC(O)c1ccc(F)cc1)c1ccc(S(=O)(=O)N2CCCC2)cn1 (stereo not drawn),1,1
COc1ccc(C(=O)N(C)OC)cc1S(=O)(=O)N1CCCc2ccccc21,7,1
